Mtb MbtI inh – inhibitors of Mycobacterium tuberculosis siderophore enzyme MbtI. P9WFX0. purified MbtI enzyme, fluorescence intensity read-out. inhibition, %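 (about 17 µg/mL by stock and volumes)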. actives 0.89% (n = 100,000);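 active = above 50% in both replicates, above 80% if mildly self-fluorescent; inactive = the rest, strongly fluorescent compounds included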;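 note: 0% = mean of negative and 100% = mean of positive controls; one replicate is shown; some compounds called inactive have numbers as strong as hits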
Mtb MenB inh – inhibitors of Mycobacterium tuberculosis MenB enzyme; AID 540299; actives 0.43% (n = 100,000); MenB enzyme assay, absorbance read-out; some hits fall short of the stated cut; P9WNP5; inhibition, %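 (about 12 µg/mL by stock and volumes)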;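 active = mean of two replicates above 30%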;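 note: 0% = no compound and 100% = wells with inactive enzyme; the first replicate is given; strong numbers were not always called active; inactives centre near -10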
Target sequence (P9WNP5 whole entry, looked up): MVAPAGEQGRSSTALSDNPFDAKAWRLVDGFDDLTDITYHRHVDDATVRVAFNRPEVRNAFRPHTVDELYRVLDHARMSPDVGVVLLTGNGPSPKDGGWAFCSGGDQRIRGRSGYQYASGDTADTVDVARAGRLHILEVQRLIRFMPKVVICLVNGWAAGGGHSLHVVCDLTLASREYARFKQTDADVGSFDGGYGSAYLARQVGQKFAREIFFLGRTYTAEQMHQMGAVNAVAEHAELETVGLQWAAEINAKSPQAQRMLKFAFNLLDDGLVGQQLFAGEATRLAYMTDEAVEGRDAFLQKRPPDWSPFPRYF
PV pol inh – inhibitors of poliovirus RNA polymerase binding and polymerization; P03300; poliovirus polymerase elongation, fluorescence polarization; hits give low values; % elongation, % (compound at 16.7 µg/mL); actives 0.66% (n = 150,000); in the data active = % elongation below about 90%; note: some results filed as inactive read as strong as hits
Target sequence (P03300 1749-2209 limits assumed): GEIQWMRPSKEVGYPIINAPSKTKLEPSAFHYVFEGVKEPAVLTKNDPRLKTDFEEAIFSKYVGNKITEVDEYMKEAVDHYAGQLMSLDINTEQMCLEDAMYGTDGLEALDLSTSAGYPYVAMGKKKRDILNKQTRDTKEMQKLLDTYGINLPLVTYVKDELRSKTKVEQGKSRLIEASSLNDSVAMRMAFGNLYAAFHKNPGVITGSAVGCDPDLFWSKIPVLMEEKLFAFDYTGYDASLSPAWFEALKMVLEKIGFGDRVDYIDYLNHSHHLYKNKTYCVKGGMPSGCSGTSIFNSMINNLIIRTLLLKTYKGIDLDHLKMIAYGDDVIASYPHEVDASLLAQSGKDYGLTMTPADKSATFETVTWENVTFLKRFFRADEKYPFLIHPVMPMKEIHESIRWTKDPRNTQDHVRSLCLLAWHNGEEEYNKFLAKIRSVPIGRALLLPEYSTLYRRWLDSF
PV pol inh intensity – also measured in PV pol inh; calls as there; % elongation; measured here: total intensity read-out; formula for this scale not given here;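 total fluorescence in place of polarization; lower means less elongation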
* marks the source's active call; other numbers are inactive results; . = not tested or not shown.

SMILES | Mtb MbtI inh | Mtb MenB inh | PV pol inh | PV pol inh intensity
CC(NC(=O)Cn1cc(S(=O)(=O)N(C)C)ccc1=O)c1ccc2c(c1)OCCO2 (stereo unspecified) | -9 | -1 | 100 | 106
O=C(Nc1ccc(N2CCOCC2)cc1)c1cccnc1 | 2 | . | 99 | 97
Cc1cccc(C)c1-n1c(SCC(=O)Nc2cccc(C#N)c2)nnc1-c1cccc(S(=O)(=O)N(C)C)c1 | 22 | -30 | 98 | 103
CC1CCCCN1CCCNC(=O)c1cc2c(s1)-c1ccc(Cl)cc1SC2 (stereo unspecified) | 8 | -10 | 103 | 107
Cc1cc(=O)[nH]c(SCC(=O)Nc2nnc(CC(C)C)s2)n1 | 11 | -2 | 100 | 98
CC(O)c1ccc(C(C)O)cc1 (stereo unspecified) | -5 | -11 | 101 | 103
O=c1[nH]c(Nc2nc3ccccc3o2)nc2ccccc12 | -3 | -53 | 105 | 97
Cc1cnc(C(=O)OCCOc2ccc(Br)cc2)cn1 | 9 | 12 | 106 | 99
Cc1noc(C)c1CSC1=N/C(=C\c2ccco2)C(=O)N1c1ccc(OC(F)F)cc1 | -2 | -75 | 114 | 115
CC1CCc2onc(C(=O)N3CCCCC3)c2C1 (stereo unspecified) | -18 | 3 | 103 | 104
Cc1ccc2nc(NCCN3CCOCC3)c3nncn3c2c1 | 1 | -16 | 101 | 108
O=C(Nc1ccc(F)cc1F)NC1CC(=O)N(Cc2ccccc2)C1 (stereo unspecified) | 1 | -12 | 101 | 103
CC(C)NS(=O)(=O)c1ccc(N2C(=O)CC3(CCCC3)C2=O)c(Cl)c1 | -9 | -5 | 107 | 105
Cc1nc2ccc(C(=O)OCc3ccccc3)cc2nc1C | -3 | -19 | 102 | 103
Cc1ccc2c(C)c(CCC(=O)O)c(=O)oc2c1 | 70 | -22 | 96 | 102
Nc1n[nH]c(Cc2nc3ccccc3[nH]2)n1 | 2 | 14 | 101 | 110
COc1ccc(C2=NN3C(C2)c2cccc(OC)c2OC3(C)C)cc1 (stereo unspecified) | 0 | -18 | 107 | 107
Cc1occc1C(=O)Nc1ccc(Cl)cc1F | -12 | -41 | 99 | 105
NS(=O)(=O)c1ccc(S(=O)(=O)NCC(=O)c2ccccc2)cc1 | . | -16 | 111 | 108
OCc1nccn1C(F)F | -3 | -16 | 96 | 102
CCc1c(C#N)c(N)nc(SCC(=O)c2ccccc2)c1C#N | 17 | -11 | 95 | 95
CCOC(=O)Cc1c(Cl)c2ccccc2[nH]c1=O | -13 | -34 | 102 | 103
NC(=S)c1ccc(-c2cccs2)s1 | 100 | -25 | 102 | 111
CSc1ccc(C=C2C(=O)OC(C)(C)OC2=O)s1 | 57 | -87 | 97 | 99
CC(=O)N1CCN(C(=O)/C=C/c2ccc(Br)cc2)CC1 | 16 | -26 | 100 | 101
Cc1ccc(Cl)cc1NC(=S)N(C(C)C)C1CCN(C(C)C)CC1 | -1 | 2 | 103 | 105
CCCN1CCC(=NNc2c(Cl)cc(Cl)cc2Cl)CC1 | -10 | -10 | 103 | 96
NC(=O)c1cc(S(=O)(=O)N(Cc2ccco2)C2CCCCC2)cs1 | -32 | -10 | 100 | 102
NC(=O)CN(c1ccccc1)S(=O)(=O)c1ccc(F)cc1 | -8 | -19 | 101 | 103
CCN(c1ccc(C(=O)CSc2nnc(-c3cccs3)n2C2CC2)cc1)S(C)(=O)=O | 11 | -20 | 108 | 103
CC(=O)Nc1ccc(NC(=O)C(C)OC(=O)C23CC4CC(CC(C4)C2)C3)cc1 (stereo unspecified) | -17 | . | 100 | 106
CCOC(=O)c1ccc(N=Cc2c(O)[nH]c(=O)[nH]c2=O)cc1 | 5 | 0 | 103 | 108
CN(C)S(=O)(=O)c1ccc2nnn(OCCOc3cccc(Br)c3)c2c1 | -13 | -12 | 100 | 95
CC(C)CN(CC(C)C)CN1CC(COc2cccc3ccccc23)OC1=O (stereo unspecified) | 10 | 5 | 100 | 102
Cc1ccc(-c2nc(N)sc2CC(=O)OCC(=O)N(C)C2CCS(=O)(=O)C2)cc1 (stereo unspecified) | 11 | -26 | 96 | 108
CN1CCc2c(c(NCCO)nc3n[nH]c(N)c23)C1 | . | -11 | 110 | 97
CN1CCN(/C=C/C(=O)C(F)(F)F)CC1 | 10 | -9 | 103 | 103
CCCNC(=O)c1cc(C)no1 | -8 | -8 | 104 | 101
CN1C(=O)/C(=C\c2ccc(C(=O)O)cc2)c2cc(Br)ccc21 | -8 | . | 101 | 106
CC(C)COC(=O)Nc1cccc2ccccc12 | -25 | -14 | 98 | 99

Part of the list above in order of SMILES length, high to low:
SMILES | Mtb MbtI inh | Mtb MenB inh | PV pol inh | PV pol inh intensity
Cc1ccc(-c2nc(N)sc2CC(=O)OCC(=O)N(C)C2CCS(=O)(=O)C2)cc1 (stereo unspecified) | 11 | -26 | 96 | 108
CC(=O)Nc1ccc(NC(=O)C(C)OC(=O)C23CC4CC(CC(C4)C2)C3)cc1 (stereo unspecified) | -17 | . | 100 | 106
CN(C)S(=O)(=O)c1ccc2nnn(OCCOc3cccc(Br)c3)c2c1 | -13 | -12 | 100 | 95
CCOC(=O)c1ccc(N=Cc2c(O)[nH]c(=O)[nH]c2=O)cc1 | 5 | 0 | 103 | 108
CC(C)CN(CC(C)C)CN1CC(COc2cccc3ccccc23)OC1=O (stereo unspecified) | 10 | 5 | 100 | 102
Cc1ccc(Cl)cc1NC(=S)N(C(C)C)C1CCN(C(C)C)CC1 | -1 | 2 | 103 | 105
CC(=O)N1CCN(C(=O)/C=C/c2ccc(Br)cc2)CC1 | 16 | -26 | 100 | 101
CCCN1CCC(=NNc2c(Cl)cc(Cl)cc2Cl)CC1 | -10 | -10 | 103 | 96
CSc1ccc(C=C2C(=O)OC(C)(C)OC2=O)s1 | 57 | -87 | 97 | 99
CCOC(=O)Cc1c(Cl)c2ccccc2[nH]c1=O | -13 | -34 | 102 | 103
CN1CCN(/C=C/C(=O)C(F)(F)F)CC1 | 10 | -9 | 103 | 103
CC(C)COC(=O)Nc1cccc2ccccc12 | -25 | -14 | 98 | 99
NC(=S)c1ccc(-c2cccs2)s1 | 100 | -25 | 102 | 111
CCCNC(=O)c1cc(C)no1 | -8 | -8 | 104 | 101
OCc1nccn1C(F)F | -3 | -16 | 96 | 102

(more compounds)
SMILES | Mtb MbtI inh | Mtb MenB inh | PV pol inh | PV pol inh intensity
O=C(O)c1ccc(/C=c2/sc3nc4ccccc4n3c2=O)cc1 | 1 | -13 | . | .
Cc1ccc(Cl)cc1N1CCN(CCCNc2ncnc3c2nc2n3CCCCC2)CC1 | -12 | -25 | 104 | 101
CC1CC(C(F)F)n2nc(C(=O)Nc3sc4c(c3C#N)CCC(C(C)(C)C)C4)nc2N1 (stereo unspecified) | 6 | 4 | 101 | 102
N#CCC(=O)NC(=O)c1cc2ccccc2oc1=O | 90 | -11 | 101 | 102
Cc1ccc(Cn2c(=O)c3ccccc3n3c(SCC(=O)N4CCCC4)nnc23)cc1 | -7 | -6 | 98 | 108
CC(C)(C)C(=O)/C=C1\SCC(=O)N1CC(=O)N1CCN(c2ccccc2)CC1 | 13 | -11 | 100 | 106
CC1(C)CC2CC(C)(CN2CC(O)COc2ccc(F)cc2Cl)C1 (stereo unspecified) | -3 | . | 101 | 99
CS(=O)(=O)Nc1ccc(Cl)cc1C(=O)c1ccccc1 | -3 | 3 | 100 | 101
O=C(COc1ccc(Cl)cc1Cl)OCCN1CCOCC1 | . | -3 | 107 | 108
O=C1C=CC(=NS(=O)(=O)c2ccc(C(=O)O)cc2)C=C1 | 91* | 13 | 99 | 101
O=C(CSc1nccc(=O)[nH]1)Nc1ccc(Cl)cc1 | -14 | 4 | 102 | 101
CCC(C)C(=O)NCc1ccc(C)cc1 (stereo unspecified) | -6 | -1 | 101 | 104
Cc1cccc(OCCC(=O)NCC2(N3CCOCC3)CCCCC2)c1 | -55 | -12 | 104 | 101
CCOC(=O)c1c(C)[nH]c(/C(C)=N/NC(=O)Cn2nc(C)cc2C)c1C | 7 | 2 | 96 | 96
CSc1ccc(-c2nc(SCC(=O)NCc3ccco3)c(-c3ccccc3)[nH]2)cc1 | 48 | -22 | 101 | 110
Cc1ccc(Nc2nc(C(=O)N3CCC(C(=O)NCCN4CCOCC4)CC3)cs2)cc1 | 0 | -47 | 106 | 101
CCCCOc1ccc(-n2c(N)c(C#N)c3nc4ccccc4nc32)cc1 | -1 | -35 | 101 | 104
CN(C)CCN(C(=O)c1ccco1)c1nc2cc3c(cc2s1)OCO3 | -2 | 7 | 102 | 102
NC(=O)N/N=C/c1ccc(/C=N/NC(N)=O)cc1 | -10 | -42 | 104 | 103
Cc1ccccc1CNC(=O)C1CCN(C(=O)c2sccc2-n2cccc2)CC1 | -4 | -32 | 104 | 99
Clc1cnc(Cl)c(Cl)c1 | 2 | 2 | 104 | 103
O=C(c1ccc(Cl)cc1)N1CCCc2ccccc21 | . | -9 | 105 | 107
COc1ccc(N2CCN(C(=O)c3cccnc3Nc3ccccc3F)CC2)cc1 | 5 | -7 | 102 | 106
COc1ccc(C(=O)N2CCN(c3ncnc4cc(-c5ccccc5)sc34)CC2)cc1OC | 19 | 2 | 96 | 109
O=C(CN1c2cccc3cccc(c23)S1(=O)=O)N1CCCCCC1 | 18 | 10 | 101 | 111
CCOc1ccc(C(=O)Nc2sc3c(c2C(N)=O)CCC3)cc1 | 101 | . | 102 | 97
CN(C)c1ccc(C(=S)N2CCNCC2)cc1 | 15 | -71 | 103 | 103
Cc1cc2c3c(c1)C1(C(=O)N3C(C)(C)CC2C)C(C#N)=C(N)Oc2n[nH]c(C)c21 (stereo unspecified) | -2 | -8 | 99 | 103
CC1(C)CC(=O)C=C(NCCCc2[nH]nc(N)c2C#N)C1 | 15 | 5 | 100 | 93
FC(F)(F)C1(C(F)(F)F)N=C(c2ccccc2)NC(c2ccccc2)=N1 | -11 | 14 | 105 | 107
CC(=O)N/N=C/c1ccc(-c2cc(C(F)(F)F)n(C)n2)s1 | 19 | 16 | 100 | 103
CCC(C)NC(=O)CSc1nc2n[nH]c(C)c2c(=N)n1-c1ccccc1Cl (stereo unspecified) | -22 | -8 | 100 | 103
CC(C)n1c(O)c(N=NC(=O)c2ccc(O)cc2)c2ccccc21 | -12 | -36 | 104 | 96
CCCc1cc(C(=O)Nc2nnc(CC)s2)sc1C | 19 | -3 | 98 | 103
O=C(CC1CCCC1)NCCS(=O)(=O)N1CCN(c2ccccc2)CC1 | 1 | 11 | 103 | 110
O=C(OCC(=O)N1CCCCC1)c1cc(=O)[nH]c(=O)[nH]1 | -3 | -10 | 104 | 109
CC(=O)Nc1ccc(NC(=O)c2cccc(C)c2)cc1 | -24 | -42 | 100 | 103
O=C(O)c1ccc(NNC(=S)NCC2CCCO2)cc1 (stereo unspecified) | 15 | -4 | 102 | 100
CNC(=S)N1N=C2c3ccccc3CCC2C1c1ccc(OC)cc1 (stereo unspecified) | -8 | -11 | 101 | 104
Cc1nn(-c2ccccc2)c2c1N(CCCC(=O)NC1CCCCC1)C(=O)CS2 | -6 | -13 | 104 | 103
O=C1CCCC(O)=C1C=Nc1ccc(N=CC2=C(O)CCCC2=O)cc1 | -10 | -65 | 101 | 104
COc1ccc(C(=O)N2CCN(Cc3ccc(OC)c(OC)c3OC)CC2)cc1 | 9 | -14 | 102 | 102
COc1ccc(Cc2nnc(SCC(=O)NC(C)C)n2-c2ccc(F)cc2)cc1OC | -10 | 8 | 104 | 108
COc1cc2c3c(c1OC)-c1ccccc1CC3N(C)CC2 (stereo unspecified) | 22 | -7 | 99 | 107
Cc1ccc(Nc2nc(SCc3ccccc3)nnc2C)cc1 | -1 | 3 | 105 | 108
NS(=O)(=O)c1ccc(N=NSCCO)cc1 | 3 | 15 | 100 | 103
Cc1ccc(S(=O)(=O)NCC(=O)NC2CCCCCC2)cc1 | 0 | -28 | 99 | 101
CNc1ccnc(C(=O)O)c1 | -6 | -10 | 100 | 103
COc1ccc(CCN2C(=O)NC(=O)C(CCc3ccncc3)(CCc3ccncc3)C2=O)cc1OC | -8 | 0 | 99 | 102
COCCn1c(C)cc(C(=O)COC(=O)c2cc(-c3ccco3)nc3ccccc23)c1C | 101 | 6 | 104 | 108
N#Cc1c(N)nc2c(c1-c1ccc(Br)s1)CCCC2 | -7 | -3 | 103 | 107

Source: PubChem BioAssay (ICCB-Longwood Screening Facility, Harvard Medical School)
